# TsaE inh: displaces an ADP probe from E. coli YjeE (TsaE). actives 0.05% (n = 71,000). purified YjeE, fluorescence polarisation of a bound ADP probe. Potency, µM; active = well fitted falling curve; inconclusive = weaker or top-dose-only fall, or a rising curve; inactive = flat or poorly fitted curve;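 note: top concentration of the series not given in the record; excess ADP was the control for the full effect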
#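 Fluorescence polarization of a BODIPY Texas Red–ADP probe (2 uM) bound to purified YjeE (10 uM) was read after 15 min room-temperature incubation with compounds. Loss of polarization marks inhibitors; ADP serves as titrated control.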
# Bst PK mod: alters activity of Bacillus stearothermophilus pyruvate kinase. partly purified Bacillus stearothermophilus pyruvate kinase, luminescence ATP production; ribose 5-phosphate activator present at AC10. Potency, µM. actives 1.2% (n = 51,000). AID 361; in the data active means potency below about 11 µM; inconclusive means mostly about 12 µM to 25 µM; inactive means weaker than that;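 the screen sought inhibitors and activators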;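 note: potency is the fitted concentration of half-maximal effect; scaled between full activation by ribose 5 phosphate and full inhibition by luteolin; about four in five hits inhibit and the cells do not say which; series up to 57 µM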
# * hit, by the source's call; i = inactive; nt = not tested or not shown. Not all compounds are listed; count on the stated rates, not on these rows.
item	SMILES	TsaE inh	Bst PK mod
1	COc1cc(-c2nc(-c3cccc(C(F)(F)F)c3)no2)cc(OC)c1OC	i	>57
2	CC(C)(C)n1ncc2c(=O)n(CC(=O)Nc3ccc4c(c3)OCO4)cnc21	i	>57
3	COc1cc(S(=O)(=O)NCc2ccc3c(c2)OCO3)ccc1Cl	i	nt
4	CCNC(=O)c1c(C)nc2ccccn12	i	nt
5	CC(=O)Oc1c(S(=O)(=O)c2ccccc2)c(C)nn1C(C)(C)C	i	>57
6	Cc1ccc2oc(NC(=O)N3CCOCC3)cc(=O)c2c1	i	>57
7	CCN(CC)CCCNc1cc2n(c(=O)n1)CCc1cc(OC)c(OC)cc1-2	i	>57
8	CCOC(=O)c1c(NC(=O)c2ccc(Br)o2)sc2c1CCCC2	i	nt
9	O=C(CN1C(=O)c2ccccc2C1=O)Nc1ccc(S(=O)(=O)NCC2CCCO2)cc1 (centres undefined)	i	>57
10	CC(NS(=O)(=O)c1ccc(F)cc1)C(=O)NCc1ccncc1 (centres undefined)	i	>57
11	Cc1cc(NS(=O)(=O)c2ccc(NC(=O)CCCOc3ccccc3)cc2)no1	i	>57
12	CCOC(=O)c1ccc(NC(=O)N2CCN(S(C)(=O)=O)CC2)cc1	i	>57

# A different layout for 3 compounds above.
no.	TsaE inh	Bst PK mod	canonical_smiles
7	i	>57	CCN(CC)CCCNc1cc2n(c(=O)n1)CCc1cc(OC)c(OC)cc1-2
12	i	>57	CCOC(=O)c1ccc(NC(=O)N2CCN(S(C)(=O)=O)CC2)cc1
6	i	>57	Cc1ccc2oc(NC(=O)N3CCOCC3)cc(=O)c2c1

# New compounds follow.
item	SMILES	TsaE inh	Bst PK mod
13	CCN(CC)C(=O)CSc1nnc(-c2ccc(S(=O)(=O)NCc3ccccc3Cl)cc2)o1	i	>57
14	Cc1cccc(-c2noc(CCC(=O)Nc3ccccc3)n2)c1	i	>57
15	Cc1nc(-c2cnn(-c3ccccc3)c2)c2cc(C)oc2n1	i	nt
16	Clc1ccc(OCc2nc(-c3ccncc3)no2)c(Cl)c1	i	i
17	O=P(O)(O)c1ccccc1OCCOCCOc1ccccc1P(=O)(O)O	i	>57
18	CC(C)(C)n1nc2c(c1NC(=O)c1ccc(S(=O)(=O)N3CCCCC3)cc1)CS(=O)C2 (centres undefined)	i	>57
19	Cc1nc2c(C)cccn2c1/C(O)=C1\C(=O)C(=O)N(CCN(C)C)C1c1ccncc1 (centres undefined)	i	>57
20	COCCNC(=O)COc1ccc(C)c(C)c1	i	nt
21	CNC(=O)Oc1ccc2c(c1)[C@@]1(C)CCN(C)[C@@H]1N2C	i	nt
22	CCN(CC)CCNC(=O)c1cc(S(C)(=O)=O)ccc1OC	i	>11
23	Cc1cc2oc(=O)cc(CN3CCC(C)CC3)c2c(C)c1Cl	i	>57
24	COc1ccc(NC(=O)Cn2nnc(-c3ccc(CN4CCOCC4)cc3)n2)c(OC)c1	i	>57

# (further entries)
item	SMILES	TsaE inh	Bst PK mod
25	Cc1ccc(S(=O)(=O)N2CCC(C(=O)N[C@H](C(=O)NCC3CCCO3)C(C)C)CC2)cc1 (some centres undefined)	i	>57
26	CC(C)(C)c1cc(Br)c(O)c(CN(Cc2cc(C(C)(C)C)cc(Br)c2O)C2CCCCC2)c1	i	nt
27	O=c1[nH]n(-c2cccc3cccnc23)c(=O)c2ccccc12	i	>57
28	CC1(C)Cc2c(C#N)c(OCC(=O)c3ccccc3)nc(-c3ccoc3)c2CO1	nt	>26
29	CC1(C)CC(=O)C(C=Nc2ccc(Cl)cn2)=C(O)C1	nt	>26
30	Cc1nc2c(C(=O)NCc3ccc(F)cc3)c[nH]n2c(=O)c1Cl	i	i
31	CCN1C(=O)C2(C(C#N)=C(N)Oc3c2c(C)nn3-c2ccccc2)c2ccccc21 (centres undefined)	i	>57
32	CC1CCN(C(=O)c2ccccc2NC(=O)c2cccc(S(=O)(=O)N3CCOCC3)c2)CC1	i	>57
33	CCCCSc1nc2c(cnn2-c2ccc(F)cc2)c(=O)[nH]1	i	nt
34	CCN(CC)CCNC(=O)C1CCC(=O)N1CCc1ccccc1 (centres undefined)	i	>57
35	CCOC(=O)/C=C1\SCC(=O)N1CC(=O)Nc1ccc2c(c1)CCC2	i	>57
36	Cc1cc(Nc2ccccc2)n(-c2nc3ccccc3[nH]2)n1	i	nt

# In a second layout: entries from further up
27: O=c1[nH]n(-c2cccc3cccnc23)c(=O)c2ccccc12
  TsaE inh = i | Bst PK mod = >57

28: CC1(C)Cc2c(C#N)c(OCC(=O)c3ccccc3)nc(-c3ccoc3)c2CO1
  TsaE inh = nt | Bst PK mod = >26

29: CC1(C)CC(=O)C(C=Nc2ccc(Cl)cn2)=C(O)C1
  TsaE inh = nt | Bst PK mod = >26

# Continued:
item	SMILES	TsaE inh	Bst PK mod
37	Cc1ccc(C(=O)OC2CCOC2=O)cc1NC(=O)c1ccco1 (centres undefined)	i	>57
38	COc1ccc(N(C)S(=O)(=O)c2c(C)[nH]c(=O)[nH]c2=O)c(OC)c1	i	>57
39	CCC(C)c1ccc(NC(=O)C2CC2)cc1 (centres undefined)	i	nt
40	CCc1ccc(NC(=O)CS(=O)CC(=O)Nc2ccc(F)cc2F)cc1 (centres undefined)	i	>57
41	COCC(=O)N1CCC2(CCCN(C(=O)Nc3cccc(F)c3)C2)CC1	i	nt
42	O=C(Nc1ccc(F)cc1)c1ccc(S(=O)(=O)NCC2CCCO2)cc1 (centres undefined)	i	>57
43	O=C(Cn1nnc(-c2ccc(CN3CCOCC3)cc2)n1)NC1CCCCC1	i	>57
44	COc1ccc(CCNC(=O)CN(C2CCCCC2)S(C)(=O)=O)cc1	i	>57
45	CCCOc1ccc(C(=O)N2CCCC2)cc1OC	i	>57
46	Cc1c(C(=O)OC(C)C)[nH]c2c1C(=O)CC(C)(C)C2	i	>57
47	COC(=O)c1ccc(Cn2cnc3c(cnn3-c3ccc(F)cc3)c2=O)o1	i	nt
48	Nc1ccc2ncccc2c1	i	>57

# (next part)
item	SMILES	TsaE inh	Bst PK mod
49	CCOC(=O)N1CCN(c2nc(SC)nc3sc4c(c23)CC(C)(C)OC4)CC1	i	nt
50	O=C(O)CCC(=O)N1CCc2cc(S(=O)(=O)N3CCCCC3)ccc21	i	>57
51	N#Cc1ccc(Cn2c(=O)c(C#N)c3n(c2=O)CCC3)cc1	i	>57
52	COc1ccc(OCC(=O)N2CCN(C(=O)c3cccs3)CC2)cc1	i	>57
53	Cc1ccc(S(=O)(=O)NCCNC(=O)CN2CCCC2)cc1	i	>57
54	COC(=O)Nc1ccc2c(c1)N(C(=O)CCN1CCN3CCCC3C1)c1ccccc1S2 (centres undefined)	i	>57
55	COCC(C)NC(=O)c1ccc(Cl)c(Cl)c1 (centres undefined)	i	i
56	CSc1sc(C)cc1C1C(C#N)=C(N)N(c2cccnc2)C2=C1C(=O)CCC2 (centres undefined)	i	>57
57	COc1ccc2c(c1)OC(O)(C(F)F)CC2=O (centres undefined)	i	nt
58	Cc1ccc(-n2nnc3c(=O)n(CC(=O)NCc4ccco4)cnc32)cc1	i	nt
59	Cc1ccc(C2C3CN(C(C)C)CC=C3C(C#N)=C(N)C2(C#N)C#N)cc1 (centres undefined)	nt	>26
60	O=C(CC12CC3CC(C1)CC(CC(=O)NC1=NCCS1)(C3)C2)NC1=NCCS1	i	>57

# The results go on.
item	SMILES	TsaE inh	Bst PK mod
61	Brc1ccc(-c2nn3c(Cc4ccccc4)nnc3s2)o1	i	>57
62	CCCNC(=O)Cn1cnc2sc(C(=O)N3CCCC(C(=O)OCC)C3)c(C)c2c1=O (centres undefined)	i	>57
63	Nc1ccn([C@@H]2CC[C@H](CO)O2)c(=O)n1	i	nt
64	CC(C)C[C@@H](CC(=O)N[C@@H](CCCN)CC(=O)N[C@@H]1CCCC[C@H]1C(=O)N[C@H](CC(=O)N[C@@H](CCC(=O)O)CC(=O)O)Cc1c[nH]c2ccccc12)NC(=O)[C@@H]1CCCC[C@H]1N	i	nt
65	CCOC(=O)c1c(NC(=O)c2cccs2)sc2c1CCCC2	i	nt
66	CN(C)c1ccc(CN(C(=O)COc2ccccc2)C2CCS(=O)(=O)C2)cc1 (centres undefined)	i	>57
67	CC(C)CCn1c(Cl)nc2c1c(=O)n(C)c(=O)n2C	i	>57
68	CC(OC(=O)c1ccc2ccccc2n1)C(=O)Nc1ccc(N2CCOCC2)cc1 (centres undefined)	i	>57
69	CCOC(=O)N1CCC(NC(=O)c2cc(C(=O)Nc3ccc(OC)c(OC)c3)ccc2CO)CC1	i	>57
70	O=C(Nc1ccccc1C(=O)N1CCOCC1)C1CCC(=O)N1C1CCCC1 (centres undefined)	i	>57
71	Cc1ccc(C2C3=C(CCCC3=O)Nc3nc(SCC(=O)NCc4ccco4)[nH]c(=O)c32)cc1 (centres undefined)	i	>57
72	CCOC(=O)C1=C(N)n2c(s/c(=C\c3cccnc3)c2=O)=C(C(=O)OC)C1c1cccnc1 (centres undefined)	nt	>26

# Going on with the list:
item	SMILES	TsaE inh	Bst PK mod
73	Cc1cc(=O)oc2c1c(C)nn2-c1ccc(C(=O)OC(C)C)cc1	i	nt
74	OC(COCC1COc2ccccc2O1)CN1CCN(c2ccccn2)CC1 (centres undefined)	i	>57
75	O=C(NCCc1ccc(Cl)cc1)C1CCN(S(=O)(=O)N2CCCC2)CC1	i	>57
76	COc1ccc(Cc2nc(-c3ccc(-n4cccc4)cc3)no2)cc1	i	nt
77	COc1cccc(-c2ccc3ncnc(NC4CCNCC4)c3c2)c1	i	nt
78	Cc1nc(=O)c(-c2ccccc2)c(C)n1CC1CCCO1 (centres undefined)	i	nt
79	CS(=O)(=O)N1CCCC(C(=O)NCCCN2CCOCC2)C1 (centres undefined)	i	>57
80	O=C(c1ccco1)N1CCN(S(=O)(=O)N2CCOCC2)CC1	i	>57
81	COc1ccc2c(c1)CCc1c(-c3noc4c3CCc3cc(OC)ccc3-4)noc1-2	i	nt
82	CC(=O)N1CCC2(CC1)C(C#N)=C(N)Oc1c2sc2nc(C)cc(C)c12	i	>57
83	COCC(=O)N1CCC2(CCCN(c3cccc(-c4ccccc4)c3)C2)CC1	i	nt
84	COC(=O)CNC(=O)COC(=O)C(Cc1ccccc1)NC(=O)c1ccco1 (centres undefined)	i	>57

# New compounds follow
item	SMILES	TsaE inh	Bst PK mod
85	CCCCSC(=O)Nc1ccccc1	i	nt
86	CCC(C)[C@H](NC(=O)NCc1cccs1)C(=O)O (some centres undefined)	i	>57
87	Cc1cc(S(=O)(=O)N(Cc2ccc(F)cc2)CC2CCCO2)ccc1-n1cnnn1 (centres undefined)	i	>57
88	O=C(OCC(=O)N1CCCC1)c1ccco1	i	>57
89	COC(=O)C1=C(C)NC(=O)NC1c1cc(Cl)ccc1OC (centres undefined)	i	>57
90	CCOC(=O)c1c(NC(=O)Cc2cccs2)sc(C)c1C	i	nt
91	CO/C([O-])=N/c1c[n+](-c2ccc(C)cc2)no1	i	>57
92	COc1cccc(OCC(O)CN2CCN(CCO)CC2)c1 (centres undefined)	i	>57
93	CCC(c1nnnn1Cc1ccco1)N(CCc1ccccc1)Cc1cc2ccc(OC)cc2[nH]c1=O (centres undefined)	i	>57
94	COC(=O)CSc1nnc(CSc2nc(C)cc(C)n2)n1Cc1ccco1	i	>57
95	O=c1c2[nH]c3ccccc3c2ncn1CCC1=CCCCC1	i	>57
96	COC(=O)C1=C(C)NC(C)=C(C(=O)OC)C1c1ccc(N(C)C)cc1	i	>57

# (next part)
item	SMILES	TsaE inh	Bst PK mod
97	c1ccc(-n2ncc3c2ncn2c(C4CCCCC4)nnc32)cc1	i	>57
98	CC1(C)CC(=O)C(C=NCCCN2CCOCC2)=C(O)C1	i	nt
99	CCN1CCN(C(c2cc3cc4c(cc3[nH]c2=O)OCO4)c2nnnn2C(C)(C)CC)CC1 (centres undefined)	i	>57
100	O=C1Nc2ccccc2C(O)(C(=O)NCc2ccc3c(c2)OCO3)N1c1ccccc1 (centres undefined)	i	>57
101	O=C(Nc1ccccc1)OCCNC(=O)c1ccccc1	i	>57
102	Cc1cnc(NC(=O)COc2ccccc2)s1	i	nt
103	O=C(c1ccco1)N1CCN(CCCCN2C(=O)c3ccccc3C2=O)CC1	i	>57
104	COc1ccc(CC(=O)n2nc(-c3ccccc3)nc2NCc2ccco2)cc1	i	>57
105	C=CCn1c(SCc2c(C)noc2C)nnc1C1COc2ccccc2O1 (centres undefined)	i	>57
106	Cc1ccc(C)c(C(=O)CSc2n[nH]c(C(C)C)n2)c1	i	>11
107	CCn1c(CC(=O)Nc2ccc(C)cc2)nnc1SCC(=O)N1CCN(c2ccccc2)CC1	i	>57
108	COCC(=O)N(C)c1nnc(-c2cnccn2)s1	i	>57

# Next structures follow.
item	SMILES	TsaE inh	Bst PK mod
109	Cn1c(=O)n(C)c2cc(NS(C)(=O)=O)ccc21	i	>57
110	O=c1[nH]c(Cn2nnc(-c3ccccc3)n2)nc2scc(-c3ccccc3)c12	i	>57
111	CCCCCCNC(=O)Cc1nc2nc(C)cc(C)n2n1	i	>57
112	CCOc1cc(NS(C)(=O)=O)c(OCC)cc1NC(=O)c1cccs1	i	>57
113	O=C(Cc1ccccc1)Nc1ccccc1CO	i	>57
114	O=C(Cn1c(CN2CCCCC2)nc2ccccc2c1=O)NCc1ccco1	i	>57
115	CCOC(=O)Cc1nnc2c(Nc3ccc(C)cc3)nc3nonc3n12	i	>57
116	CCOC(=O)C1CCCN(C/C(O)=C(\C#N)c2nc(-c3ccccc3)cs2)C1 (centres undefined)	i	>57
117	COc1cc(-c2nnc(-c3cccnc3)o2)cc(OC)c1OC	i	>57
118	O=C(CN(Cc1ccco1)C(=O)Cn1nnc(-c2ccc(F)cc2)n1)NC1CCCC1	i	>57
119	O=C(O)/C=C\C(=O)Nc1ccc2c(c1)-c1ccccc1C2	i	nt
120	CC1CCc2nc(NC(=O)CN3CCN(c4ccccc4)CC3)sc2C1 (centres undefined)	i	>57

# Screening results deposited in PubChem by National Center for Advancing Translational Sciences (NCATS).
